Screens from PubChem BioAssay.
DUX4 inh: inhibitors of DUX4-driven ZSCAN4 reporter expression, primary screen, 293T cells, Gaussia and Italica luciferase | 293T-iDUX4 ZSCAN4-Gaussia luciferase reporter, 24 h; stronger effect = lower value | activity change, negative = inhibition, % (no concentration beside the values) | 0.8% of 37,000 active;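 active means -10% or lower and over 25 points stronger than a control reporter; inconclusive means -10% or lower with a smaller gap; inactive means above -10%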;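 further: 0% = median of neutral control wells and -100% = median of positive control wells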
DUX4 inh difference: also measured in DUX4 inh; calls as there; Gaussia minus Italica difference, %; measured here: selective DUX4 reporter inhibition;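 worked out from the two reporters; negative = selective loss of the DUX4 reporter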
DUX4 inh control: also measured in DUX4 inh; calls as there; activity change, negative = inhibition, %; measured here: Italica tet-on control reporter;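 0 = neutral control and -100 = positive control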
An asterisk follows results filed as active; ? = inconclusive; / = not tested or not shown. This is a subset; the hit share may differ from the screen's.

#	DUX4 inh control	DUX4 inh difference	DUX4 inh	compound
1	1.8	4	6	CC(C)COC(=O)N(C)C[C@H]1OCc2cnnn2CCCC(=O)N([C@H](C)CO)C[C@@H]1C
2	/	/	?	Cc1ccccc1S(=O)(=O)N1C[C@H](O)COC[C@H]2O[C@@H](CC(=O)NCc3ccccc3Cl)CC[C@@H]21
3	-0.3	1	1	C[C@@H]1CCCCO[C@H](CN(C)C(=O)Nc2ccccc2)[C@@H](C)CN([C@H](C)CO)C(=O)c2cc(NC(=O)Nc3ccccc3)ccc2O1
4	/	/	?	COc1ccccc1NC(=O)N[C@H]1CC[C@@H](CC(=O)N2CCC(Cc3ccccc3)CC2)O[C@H]1CO
5	-1.3	1	0	CO[C@@H]1CC[C@@H]2CCN(C)C(=O)[C@@H](C)N(C)C(=O)c3cc(C#N)ccc3OC[C@@H]1O2
6	-2.9	-3	-6	CCCNC(=O)NC[C@@H]1[C@@H](c2ccc(C3=CCCC3)cc2)[C@H](CO)N1C(=O)CC
7	0.5	0	0	CC(=O)NC[C@H]1[C@H](c2ccc(-c3cccnc3)cc2)[C@@H](CO)N1C(=O)C1CCC1
8	1.9	1	3	CC(C)C#Cc1ccc2c(c1)O[C@@H](CN(C)C(=O)Nc1ccccc1)[C@@H](C)CN([C@@H](C)CO)S2(=O)=O
9	-2.4	7	5	COC(=O)[C@@H]1[C@@H](CO)[C@@H]2Cn3c(ccc(-c4cccnc4)c3=O)[C@@H]2N1Cc1cccc(F)c1
10	0.8	1	2	CN(C)C(=O)c1ccc(-c2ccccc2[C@@H]2[C@@H](C#N)N(C(=O)C3CCCCC3)[C@@H]2CO)cc1
11	1.9	2	3	CN(C)C(=O)C[C@H]1CC[C@@H]2[C@@H](COc3ccc(NS(=O)(=O)c4cccc(F)c4)cc3C(=O)N2C)O1
12	1.6	7	8	CNC[C@H]1OCc2cnnn2CCCC(=O)N([C@@H](C)CO)C[C@@H]1C
13	3.4	3	7	COc1ccc(C#Cc2ccc([C@H]3[C@H](CO)N4C(=O)CN(C(=O)c5cccnc5)C[C@@H]34)cc2)cc1
14	1.8	1	3	COC(=O)[C@H]1[C@H](CO)[C@H]2Cn3c(ccc(-c4ccc(F)cc4)c3=O)[C@H]2N1C(=O)C1CC1
15	26	-3	23	CCCNC(=O)N1CCC2(CC1)CN(C(C)=O)[C@@H](CO)c1[nH]c3cc(OC)ccc3c12
16	11	-20	-10	O=C(c1cccc(F)c1)N1CC(=O)N2[C@H](CO)[C@@H](c3ccc(-c4ccccc4F)cc3)[C@@H]2C1
17	-1.1	3	2	O=C(N[C@H]1CC[C@@H](CC(=O)N2CCN(c3ccccc3)CC2)O[C@@H]1CO)c1ccncc1
18	5.2	0	5	CS(=O)(=O)Nc1ccc2c(c1)[C@H]1C[C@@H](CC(=O)NCC3CC3)O[C@@H](CO)[C@H]1O2
19	/	/	?	OC[C@@H]1Nc2ccc(C#Cc3ccccc3)cc2[C@H]2[C@@H]1CCN2Cc1nccs1
20	-3.2	1	-2	CCCNC(=O)N1[C@@H]2CN(C(=O)c3ccccc3)c3ccccc3[C@@H]2[C@@H]1CO
21	4.6	4	9	COCC(=O)N1[C@@H]2c3ccc(/C=C/c4ccccc4)c(=O)n3C[C@H]1[C@H](CO)[C@H]2C(=O)N1CCOCC1
22	-13	12	-1	CCCC#Cc1ccc([C@@H]2[C@@H](CO)N3C(=O)CN(C(=O)Nc4cccc(F)c4)C[C@H]23)cc1
23	/	/	?	CCCNC(=O)N1CC[C@@H]2[C@H]1c1cc(C#Cc3ccc(OC)cc3)ccc1N(C)[C@@H]2CO
24	-0.7	4	3	C/C=C/c1ccc2c(c1)O[C@@H](CN(C)C(=O)C1CCCCC1)[C@H](C)CN([C@@H](C)CO)S2(=O)=O
25	7.1	6	13	O=C(Cc1ccccn1)N1CC(=O)N2[C@@H](CO)[C@H](c3ccc(C#CC4CC4)cc3)[C@@H]2C1
26	0.6	-2	-2	O=C(Nc1ccccc1F)N1C[C@H]2[C@@H](c3ccccc31)[C@@H](CO)N2C(=O)C1CCCCC1
27	10.0	1	11	CC1C=NC(S(=O)(=O)N2CC[C@@H]3[C@H]2c2cc(-c4cccc(F)c4)ccc2N(C)[C@H]3CO)=N1 (some centres not stated)
28	2.7	3	6	COCC(=O)N1[C@H](CO)[C@H](c2ccccc2)C12CN(C(=O)NC1CCCCC1)C2
29	1.4	7	8	O=C(c1ccncc1)N1CC(=O)N2[C@H](C1)[C@@H](c1ccc(-c3ccccc3F)cc1)[C@@H]2CO
30	2.9	-3	0	N#C[C@@H]1N[C@@H](CO)[C@H]1c1ccc(C#Cc2ccccc2F)cc1

4 entries from above, ordered by molecular weight, highest first.
#	DUX4 inh control	DUX4 inh difference	DUX4 inh	compound
1	1.8	4	6	CC(C)COC(=O)N(C)C[C@H]1OCc2cnnn2CCCC(=O)N([C@H](C)CO)C[C@@H]1C
28	2.7	3	6	COCC(=O)N1[C@H](CO)[C@H](c2ccccc2)C12CN(C(=O)NC1CCCCC1)C2
6	-2.9	-3	-6	CCCNC(=O)NC[C@@H]1[C@@H](c2ccc(C3=CCCC3)cc2)[C@H](CO)N1C(=O)CC
7	0.5	0	0	CC(=O)NC[C@H]1[C@H](c2ccc(-c3cccnc3)cc2)[C@@H](CO)N1C(=O)C1CCC1

Next section
#	DUX4 inh control	DUX4 inh difference	DUX4 inh	compound
31	0.7	-1	0	COCC(=O)Nc1ccc2c(c1)C(=O)N(C)[C@@H]1CC[C@@H](CC(=O)N3CCc4ccccc4C3)O[C@@H]1CO2
32	-1.4	9	7	OC[C@@H]1[C@@H](c2ccc(C#CC3(O)CCCC3)cc2)[C@H]2CN(Cc3ccccc3F)CCCCN12
33	0.3	-6	-5	CO[C@H](CN(C)Cc1nccs1)[C@@H](C)CN([C@H](C)CO)S(=O)(=O)c1ccc(C)cc1
34	0.0	-1	-1	C[C@@H]1CN([C@H](C)CO)C(=O)c2cc(NC(=O)NC3CCCCC3)ccc2O[C@H]1CN(C)C(=O)Nc1ccc2c(c1)OCO2
35	10	0	10	O=C(CC1CC1)Nc1ccc2c(c1)[C@H]1C[C@H](CC(=O)N3CCCCC3)O[C@@H](CO)[C@H]1O2
36	4.0	-2	2	CN1CCN(C(=O)C[C@@H]2C[C@@H]3c4cc(NS(C)(=O)=O)ccc4O[C@@H]3[C@@H](CO)O2)CC1
37	11	-14	-3	COc1ccc(C#Cc2ccc3c(c2)[C@@H]2[C@@H](CCN2C(C)=O)[C@H](CO)N3)cc1
38	5.9	0	6	COc1ccccc1-c1ccc2n(c1=O)C[C@@H]1[C@@H](CO)[C@H](C(=O)N[C@H](C)c3ccccc3)[C@H]2N1C
39	-4.5	1	-3	CC(C)NC(=O)N1[C@H](CNC(=O)CN(C)C)[C@H](c2ccccc2)[C@@H]1CO
40	4.1	-4	0	Cc1ccccc1S(=O)(=O)N1[C@@H](C#N)[C@@H](c2ccc(-c3ccccc3)cc2)[C@@H]1CO
41	/	/	?	COc1ccc(C#Cc2ccc([C@H]3[C@@H](CO)N4CCCCN(C(=O)Nc5ccccc5)C[C@H]34)cc2)cc1
42	/	/	?	C[C@H]1CN([C@@H](C)CO)C(=O)c2c(c3ccccc3n2C)-c2ccccc2CO[C@H]1CN(C)C(=O)Nc1cccc(Cl)c1Cl
43	1.1	-11	-9	CN(C)C(=O)c1ccc(-c2ccc3c(c2)[C@H]2[C@H](CCN2C(=O)c2ccccc2)[C@@H](CO)N3)cc1
44	/	/	?	C[C@@H]1CCCCO[C@H](CN(C)C(=O)Nc2ccc3c(c2)OCO3)[C@@H](C)CN([C@@H](C)CO)C(=O)c2cc(NC(=O)C3CCCCC3)ccc2O1
45	6.6	-7	0	COc1ccc(S(=O)(=O)N2C[C@@H](O)COC[C@H]3O[C@H](CC(=O)N[C@@H]4CCN(Cc5ccccc5)C4)CC[C@@H]32)cc1
46	-6.9	5	-2	O=C(C[C@H]1C=C[C@H](NC(=O)Cc2cccnc2)[C@@H](CO)O1)Nc1ccc(-c2ccccc2)cc1
47	-3.2	-7	-10	CCCN1[C@H](C(=O)N2CCOCC2)[C@@H](CO)[C@@H]2Cn3c(ccc(/C=C/c4ccccc4)c3=O)[C@@H]21
48	-4.8	12	7	COc1ccc2c3c(n(C)c2c1)[C@H](CO)N(C(=O)CC1CC1)CC31CN(Cc2ccncc2)C1
49	-3.7	-4	-8	Cc1noc(C)c1S(=O)(=O)Nc1ccc2c(c1)CC(=O)N([C@H](C)CO)C[C@H](C)[C@H](CN(C)Cc1ccc(Oc3ccccc3)cc1)O2
50	/	/	?	CC(C)C#Cc1ccc([C@H]2[C@@H](CO)N3C(=O)CN(S(=O)(=O)c4ccccc4)C[C@H]23)cc1
51	2.5	-1	1	O=C(C[C@@H]1CC[C@@H]2[C@H](COC[C@H](O)CN2Cc2ccncc2)O1)NCc1ccccc1Cl
52	/	/	?	CN(C)c1ccc2c(c1)[C@@H]1C[C@@H](CC(=O)NCc3ccc(-c4ccccc4)cc3)O[C@H](CO)[C@@H]1O2
53	2.9	-4	-1	CO[C@@H]1CC[C@@H]2CCOc3c(C#N)cccc3C(=O)N(C)[C@H](C)C(=O)N(C)C[C@H]1O2
54	6.2	-4	2	CC(C)CC#Cc1ccc2c(c1)O[C@H](CN(C)Cc1cncnc1)[C@H](C)CN([C@H](C)CO)S2(=O)=O
55	/	/	?	C[C@@H]1CN([C@@H](C)CO)C(=O)c2c(c3ccccc3n2C)-c2ccccc2CO[C@H]1CN(C)Cc1ccc(Oc2ccccc2)cc1
56	11	-5	7	C/C=C/c1ccc([C@H]2[C@@H](CO)N(C(=O)c3ccccn3)C23CN(CCC(F)(F)F)C3)cc1
57	17	-15	2	CCCC(=O)N1CCC2(CC1)CN(C(=O)C1CCOCC1)[C@H](CO)c1[nH]c3cc(OC)ccc3c12
58	-3.5	1	-2	CN(C)CC(=O)N1[C@@H]2c3ccc(C4=CCCCC4)c(=O)n3C[C@@H]2[C@@H](CO)[C@@H]1C(=O)Nc1nccs1
59	-1.0	0	-1	N#C[C@@H]1[C@H](c2ccc(C#Cc3ccc(F)cc3)cc2)[C@@H](CO)N1C(=O)C1CC1
60	1.3	7	8	CC(=O)N1CC(=O)N2[C@@H](CO)[C@H](c3ccc(-c4ccc(C)cc4)cc3)[C@@H]2C1
61	-1.9	-2	-4	C[C@H](CO)N1C[C@H](C)[C@@H](CN(C)S(=O)(=O)c2cccs2)Oc2ccc(NC(=O)Cc3cn(C)c4ccccc34)cc2CC1=O
62	3.1	-2	1	CCCC#Cc1ccc([C@@H]2[C@H](C#N)N(S(=O)(=O)c3cccc(F)c3)[C@H]2CO)cc1
63	-0.4	3	3	O=C(C[C@H]1C[C@H]2c3cc(NC(=O)CC4CC4)ccc3O[C@H]2[C@@H](CO)O1)NCC1CC1
64	2.6	-1	2	CCCNC(=O)N(C)C[C@@H]1Oc2ncc(-c3ccc(C(=O)N(C)C)cc3)cc2C(=O)N([C@H](C)CO)C[C@@H]1C
65	-8.0	6	-2	CCCNC(=O)N1CC(=O)N2[C@H](CO)[C@H](c3ccc(C#Cc4cccc(OC)c4)cc3)[C@@H]2C1
66	5.0	-3	2	CN1C(=O)c2cc(NC(=O)C3CC3)ccc2OC[C@H]2O[C@H](CC(=O)NCCN3CCCC3)CC[C@@H]21
67	7.1	8	15	O=C(C[C@H]1CC[C@@H]2[C@H](COC[C@@H](O)CN2C(=O)Nc2ccccc2)O1)NCc1ccncn1
68	-3.1	3	0	C[C@@H]1CN([C@H](C)CO)C(=O)c2c(c3ccccc3n2C)-c2ccccc2CO[C@H]1CN(C)C(=O)CCN(C)C
69	6.3	-11	-5	O=C(NCc1ccncn1)[C@@H]1[C@@H](CO)[C@@H]2Cn3c(ccc(-c4cccc(F)c4)c3=O)[C@@H]2N1CC1CC1
70	2.4	5	7	COCC(=O)N1C[C@H](C)[C@H](OC)CN(C)C(=O)c2cc(NC(=O)c3cnccn3)ccc2OC[C@H]1C
71	-5.3	18	12	Cc1ccccc1S(=O)(=O)N1C[C@@H](O)COC[C@@H]2O[C@@H](CC(=O)O)CC[C@H]21
72	-0.5	3	2	COc1cccc(CN(C)C[C@@H]2OCc3cnnn3CCCC(=O)N([C@H](C)CO)C[C@@H]2C)c1
73	/	/	?	CN1c2ccc(-c3cccc(F)c3)cc2[C@@H]2[C@@H](CCN2C(=O)C2CCOCC2)[C@H]1CO
74	8.7	4	13	O=C(C1CCOCC1)N1CC2(C1)[C@@H](c1ccccc1)[C@H](CO)N2Cc1ccc(Cl)cc1

Complete entries as entered above.
`O=C(NCc1ccncn1)[C@@H]1[C@@H](CO)[C@@H]2Cn3c(ccc(-c4cccc(F)c4)c3=O)[C@@H]2N1CC1CC1` is listed with DUX4 inh control: 6.3; DUX4 inh difference: -11; DUX4 inh: -5
`CCCNC(=O)N1CC(=O)N2[C@H](CO)[C@H](c3ccc(C#Cc4cccc(OC)c4)cc3)[C@@H]2C1` is listed with DUX4 inh control: -8.0; DUX4 inh difference: 6; DUX4 inh: -2
